Sfp inh: blocks B. subtilis Sfp PPTase activity. Q9F4F7. Biochemical Sfp PPTase activity, qHTS. Potency, µM, inactives show max response, negative = inhibition, most hits filed as inhibitors. 310,000 compounds, 3.5% hits; active = well fitted inhibition curve with a large enough effect; inconclusive = small, poorly fitted or top-dose-only effect, or another doubt; inactive = no such curve, though single readings can be large or run the other way;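 note: the enzyme is Sfp with the accession as filed and its product quenches rhodamine fluorescence; potency is the fitted concentration of half-maximal effect; 0% = enzyme reaction without inhibitor and -100% = no enzyme wells; top concentration of the series not given in the record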
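With Hepes-Na pH 7.6 buffer containing 10 mM MgCl2, Sfp (15 nM) modified BHQ-2-YbbR (12.5 uM) using rhodamine-CoA (5 uM). Two reads 30 minutes apart at 525/598 nm yielded each well's rate.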
gsp ag: gsp mutant agonism; Potency, µM (top dose mostly 76.9 µM), for inactives: at the top dose activation (cAMP increase), most hits filed as activators; 340,000 compounds, 0.13% hits; gsp mutant cells, cAMP HTRF, 30 min; control for the full effect not named in the record; active = well fitted activation curve with a large enough effect; inconclusive = small, poorly fitted or top-dose-only effect, or another doubt; inactive = no such curve, though single readings can be large or run the other way; cell line not stated here;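 note: phosphodiesterase inhibitor Ro 20-1724 added with compounds to block cAMP breakdown; potency is the fitted concentration of half-maximal effect; nearly all actives have a fitted effect of over 60% in size; about a fifth of the inactives were tested at one dose only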
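Cells stably selected in G418 were plated at 2000/well, grown 16-24 hr, then given compounds in DMSO with the PDE inhibitor […] (300 uM solution added) for 30 min at 37C; cAMP was read by HTRF.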
gsp antag: antagonizes gsp, the McCune-Albright syndrome mutation; gsp-mutant cells, cAMP HTRF, 30 min; control for the full effect not named in the record; Potency, µM (doses to about 76.9 µM), without a hit: at the highest dose activity change, negative = inhibition, actives largely listed as inhibitors; 340,000 compounds, 0.4% hits; AID 624288; active = falling curve of any shape with a large fitted effect; inconclusive = falling curve, mostly with a smaller effect; inactive = flat or rising curve; cell line not stated here;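 note: intracellular cAMP measured with PDE inhibitor Ro 20-1724 present during compound exposure; potency is the fitted concentration of half-maximal effect; % is set by controls: 0 for no effect and ±100 for the full control effect; nearly all actives have a fitted effect of over 65% in size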
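Cells in G418 medium, seeded 16-24 h, 37C; buffer exchange to DPBS + 1 mM CaCl2, 0.5 mM MgCl2, 0.05% BSA; cpds in DMSO + […] (300 uM stock), 30 min 37C; HTRF cAMP detection.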
Menin MLL FP FL: menin-MLL binding inhibition, fluorescein peptide | FP activity change, % at 61.4 µM | 290,000 tested, under 10 active | Fluorescence polarization, fluorescein-MLL peptide displacement from menin; inconclusive = falling polarisation curve, or a change in total fluorescence; inactive = total fluorescence flat and polarisation flat or rising; no compound was filed as active; the % refers to the polarisation; negative = inhibition;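 note: % of control where 0% means no effect; inhibitors lower the polarisation; unlabelled MLL peptide was the positive control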
TRPV1 PAM: potentiators of human vanilloid receptor 1 (TRPV1). Q8NER1. TRPV1-expressing cells, Fluo-8 calcium influx, capsaicin EC20 potentiation; host cell line not named in the record; control for the full effect not named in the record. AID 540277. potentiation, % at 8.33 µM. 320,000 compounds, 0.02% hits; active means potentiation above 80%; inconclusive means 30% to 80%; inactive means below 30%; note: 0% is about no effect
Target sequence (Q8NER1 whole entry, looked up): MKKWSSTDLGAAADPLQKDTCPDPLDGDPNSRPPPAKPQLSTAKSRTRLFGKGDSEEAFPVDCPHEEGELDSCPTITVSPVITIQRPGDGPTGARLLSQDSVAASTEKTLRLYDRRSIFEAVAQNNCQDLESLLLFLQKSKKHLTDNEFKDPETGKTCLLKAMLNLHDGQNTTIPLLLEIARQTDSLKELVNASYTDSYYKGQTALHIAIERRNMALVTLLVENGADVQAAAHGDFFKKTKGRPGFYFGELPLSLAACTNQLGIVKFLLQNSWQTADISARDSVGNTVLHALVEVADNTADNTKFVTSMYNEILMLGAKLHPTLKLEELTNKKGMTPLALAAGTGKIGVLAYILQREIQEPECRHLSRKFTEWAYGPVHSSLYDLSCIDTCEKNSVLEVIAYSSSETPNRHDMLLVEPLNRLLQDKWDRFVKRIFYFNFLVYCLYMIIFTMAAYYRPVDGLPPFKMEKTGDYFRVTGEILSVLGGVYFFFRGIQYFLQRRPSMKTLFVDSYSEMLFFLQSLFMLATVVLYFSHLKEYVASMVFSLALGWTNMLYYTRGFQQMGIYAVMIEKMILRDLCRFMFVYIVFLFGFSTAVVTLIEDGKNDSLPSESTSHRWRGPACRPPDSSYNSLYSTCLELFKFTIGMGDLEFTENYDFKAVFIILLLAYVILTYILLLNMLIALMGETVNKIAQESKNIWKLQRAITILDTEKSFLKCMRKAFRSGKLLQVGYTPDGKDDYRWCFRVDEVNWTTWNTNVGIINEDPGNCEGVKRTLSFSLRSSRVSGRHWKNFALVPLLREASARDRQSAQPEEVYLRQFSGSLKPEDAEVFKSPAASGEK
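Fluo-8 calcium influx in TRPV1-expressing cells, kinetic read (ex 480/em 520 nm). Compound added and read 3 min for agonist activity, followed by capsaicin at EC20 final and 2 min further read for enhancement.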
D2 potentiator: human D2 receptor positive allosteric modulation | 360,000 compounds, 0.23% hits | DiscoveRx D2 beta-arrestin cells, luminescence, 90 min; 100% = 57 uM dopamine signal | potentiation, % (concentration not given with the values); active = potentiation of 50% or more; inconclusive = 30% to 50%; inactive = 30% or less;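 note: tested on top of an EC20 dose of dopamine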
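PathHunter beta-arrestin assay in DiscoveRx D2 cells. Compounds were added with an EC20 of dopamine (50 nM final) for 90 min at 37 deg C. Luminescence was read 1 h after detection reagent, with 57 uM dopamine as the EC100 control.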
ClpP mod: qHTS Assay for Activators of ClpP; ATP-dependent Clp protease proteolytic subunit (Bacillus subtilis (strain 168)), P80244; purified B. subtilis ClpP, FRET peptide cleavage, 20 min; Potency, µM (doses to about 57.5 µM), inactives show top-dose activity change, negative = active; 340,000 compounds, 1.9% hits; active = well fitted falling curve with a large enough effect; inconclusive = small, poorly fitted or top-dose-only effect; inactive = no such curve, though single readings can be large or run the other way; note: potency is the fitted concentration of half-maximal effect; the source files actives as falling curves though it sought activators and does not explain the sign; nearly all actives have a fitted effect of over 65% in size; many hits overshoot -100%
Target sequence (P80244 whole entry, looked up): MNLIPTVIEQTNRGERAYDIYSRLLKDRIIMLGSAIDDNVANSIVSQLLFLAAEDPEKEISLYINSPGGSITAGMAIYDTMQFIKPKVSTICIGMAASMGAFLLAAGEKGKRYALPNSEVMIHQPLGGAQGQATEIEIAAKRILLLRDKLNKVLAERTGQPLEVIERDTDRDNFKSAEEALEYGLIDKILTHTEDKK
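FRET quenching reversal measured ClpP activation: 10 microg/mL B. subtilis ClpP at pH 8 with the FRET-FV decapeptide, read at 430 nm after 320 nm excitation. The 20-min minus 0-min signal was scaled between DMSO/no-enzyme wells and ADEP (5.8 microM final).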
The depositor's hits bear a star; ? = inconclusive; / = not tested or not shown; [ ] = another dose, or the depositor's remark.

molecule	Sfp inh	gsp ag	gsp antag	Menin MLL FP FL	TRPV1 PAM	D2 potentiator	ClpP mod
COc1cc2ccc(C(C)=O)cc2cc1OC	/	-9%	/	/	/	-8	-25%
CCOC(=O)c1cc(NC(=O)c2ccoc2C)cc(C(=O)OCC)c1	17%	-25%	?	-1.1	-26	0	-1.5%
C=CCn1c(SCc2c(F)c(F)c(F)c(F)c2F)nc(O)cc1=O	15%	-2%	-6%	-3.1	-11	-16	-1.2%
CC(C)CC(c1nnnn1Cc1cccs1)N1CCN(c2nc3ccccc3s2)CC1 (stereo not given)	14%	0%	1%	0.7	-5	-9	-0.4%
O=C(CSc1nc2ccccc2[nH]1)N/N=C/C=C/c1ccccc1[N+](=O)[O-]	0%	-22%	2%	0.9	-3	-21	-1.0%
O=C(Nc1cccc(C(=O)N2CCCCC2)c1)c1ccc(Cl)cc1	5%	4%	-1%	/	2	-19	0.9%
CCNc1nc(SCC(=O)Nc2ccc(Cl)c(Cl)c2)nc(N(C)C)n1	1%	-14%	?	0.0	20	1	0.5%
O=C(C1CCN(c2nnc(N3CCCC3=O)s2)CC1)N1CCN(Cc2ccc3c(c2)OCO3)CC1	11%	-23%	-3%	-0.2	2	4	-8.3%
CCOC(=O)c1cc(-c2ccccc2)sc1NC(=O)C(C)OC(=O)c1cccnc1OCC (stereo not given)	10%	-10%[15.4 µM]	6%	4.0	9	-2	-0.8%
Cc1cccn2c(=O)c3cc(C(=O)NCCN4CCOCC4)n(Cc4ccccc4)c3nc12	-6%	/	/	-1.0	-6	/	/
CC(C)c1ccc2oc(-c3ccc(N)cc3)nc2c1	7%	2%	-14%	-1.3	-5	-10	43%
Cc1ccc(-n2ncc3c(SCC(N)=O)ncnc32)cc1C	13%	1%[15.4 µM]	-31%	4.1	-8	-13	0.3%
CN(C(=O)CSc1nc2ccccc2o1)C1CCS(=O)(=O)C1 (stereo not given)	/	1%[15.4 µM]	4%	/	-2	-17	-0.5%
Cc1nn2c(C(F)(F)F)cc(-c3ccc(Cl)cc3)nc2c1C(=O)N1CCOCC1	?	0%	-5%	3.2	-9	-1	-12%
CCCN1CCN(CCCNC(=O)C2CCCN(c3nc4ccc(OCC)cc4s3)C2)CC1 (stereo not given)	15%	-23%	-1%	0.3	14	-4	1.0%
O=C1c2cccc(OCC(=O)N3CCCc4ccccc43)c2CCN1Cc1ccc(Br)cc1	2%	26%	-30%	7.2	7	-8	-7.2%
CCOC(=O)c1ccc(Nc2cnc3ccccc3n2)cc1	3%	12%[15.4 µM]	8%	3.1	-12	-1	-1.8%
CCOC(=O)CN1c2ccccc2NC(=O)CC1C (stereo not given)	15%	-20%	2%	-1.0	/	0	-0.8%
O=C(NC1CC1)c1cc(-c2ccccn2)nc2ccccc12	14%	10%	8%	3.2	-9	-12	1.9%
COc1ccc(Cc2nnc(Nc3ccc4c(c3)OCCO4)[nH]c2=O)cc1	3%	0%	4%	0.7	16	-4	/
NC(=O)C1CCN(C(=O)c2cc(-c3ccc(Cl)s3)nc3ccccc23)CC1	/	12%	-10%	/	/	1	4.1%
O=C1OCC2=C1C(c1ccc3c(c1)OCO3)Sc1ccccc1N2 (stereo not given)	2%	-7%	?	2.2	12	16	-0.3%
CCOC(=O)Cc1csc(NC(=S)NC(=O)c2ccc(C)cc2)n1	-12%	-4%	-17%	2.7	4	-4	2.3%
Cc1sc2ncn(CC(=O)NC3CCCCC3)c(=O)c2c1C	/	?	6%	/	1	-2	-3.2%
CS(=O)(=O)N(Cc1ccccc1F)c1ccccc1	16%	6%	-10%	1.5	-15	-17	0.8%

molecule	Sfp inh	gsp ag	gsp antag	Menin MLL FP FL	TRPV1 PAM	D2 potentiator	ClpP mod
CCN(CC)c1ccc(C=Nc2ccc(C#N)cc2)c(O)c1	-5%	?	0%[15.4 µM]	1.9	25	-13	-3.0%
Cc1ccccc1C(=O)NNC(=O)C(=O)N1CCCCC1	2%	-20%	3%	0.5	1	-10	-1.9%
Cc1nc(NC(=O)/C=C/c2ccccc2)n[nH]1	1%	32%[15.4 µM]	13%	0.9	6	-7	/
CC1(C)CC(=O)C2=C(C1)NC1=C(C(=O)c3ccccc31)C2c1ccc(Cl)cc1 (stereo not given)	-18%	-41%[inhibitor]	-23%	-3.0	-8	-31	-0.8%
CCOc1ccc(C(C)C)cc1S(=O)(=O)N1CCOCC1	10%	4%[15.4 µM]	4%	5.5	-21	-4	/
Cc1ccc2nc(N/C(=N/S(=O)(=O)c3cccs3)c3ccccc3Cl)sc2c1	17%	-2%[15.4 µM]	-27%	-1.0	3	-3	/
COC(=O)c1onc(-c2c(OC)cc(OC)cc2OC)c1C(=O)OC	10%	-4%[15.4 µM]	7%	12	-4	-10	1.8%
CCc1nc(C)ccc1OCC(=O)O	3%	21%	5%	5.5	-15	-8	-17%
O=S(=O)(c1ccc2ccccc2c1)N1CCCCCC1	?	-19%[15.4 µM]	8%	6.3	12	-1	/
CC(C)Cn1cnc2c1c(=O)n(CC(=O)N(C)C)c(=O)n2Cc1ccccc1	11%	-1%[15.4 µM]	2%	0.0	1	15	/
Cc1c(C(=O)N2CCCCC2)c(S(=O)(=O)N2c3ccccc3CC2C)c(C)n1C (stereo not given)	19%	?	5%	2.7	3	-4	2.4%
O=C(COC(=O)c1ccc(O)cc1)Nc1ccccc1[N+](=O)[O-]	-4%	13%[15.4 µM]	/	-6.0	12	-41	/
Cc1ccc(CCCOC(=O)C[N+]2(C)CCOCC2)cc1	?	-32%[inhibitor]	7%	-0.4	-4	-21	0.8%
S=C(c1ccc(-c2ccc(Cl)cc2Cl)o1)N1CCCCC1	56µM*	-13%	-16%	3.4	8	-4	2.0%
O=C1c2ccccc2C(=O)N1CCc1csc(NNc2nc(CCN3C(=O)c4ccccc4C3=O)cs2)n1	-21%	6%	-7%	-2.5	-1	-21	-2.7%
COCCCN1C(=O)CS/C1=N\S(=O)(=O)c1ccccc1	29%	-9%	-8%	0.1	-2	10	-0.8%
CCC(=O)N1c2ccccc2C(N(C(C)=O)c2ccccc2)CC1C (stereo not given)	14%	22%	-2%	3.6	-18	2	-0.9%
O=C1CN(S(=O)(=O)c2ccccc2)c2ccccc2N1	-9%	?	3%	0.3	-12	0	/
CCOC(=O)CSc1nnc(CNC(=O)c2ccco2)n1C	8%	-48%[inhibitor]	-4%	-2.0	-7	-1	1.3%
Oc1ccccc1OCC(O)c1ccccc1 (stereo not given)	2%	-8%[15.4 µM]	16%	0.7	11	-10	-1.1%
CN1CCN(c2ccc(NC(=O)c3ccc(-c4cccc([N+](=O)[O-])c4)o3)cc2)CC1	-17%	-5%[15.4 µM]	-8%	-2.1	1	-14	/
Cc1ccc(-n2cccc2/C=C2/NC(=O)N(CC(=O)Nc3cccc(C)c3)C2=O)cc1	-27%	17%[15.4 µM]	-15%	3.6	6	-6	0.5%
CCN1CCCC1CNS(=O)(=O)c1ccc(C(=O)Nc2ccccc2)cc1 (stereo not given)	11%	-10%	2%	5.2	12	-33	0.9%
CCOCCCn1cnc2c(c1=O)c1nc3ccccc3nc1n2-c1ccc(C)cc1	10%	3%	14%	-2.3	-4	-10	-6.6%
COCCNC(=O)c1c[nH]c2ccc(S(=O)(=O)N3CCc4ccccc43)cc2c1=O	-13%	-15%[15.4 µM]	-20%	-2.5	-1	17	/

Random excerpt: 2 entries already listed.
molecule	Sfp inh	gsp ag	gsp antag	Menin MLL FP FL	TRPV1 PAM	D2 potentiator	ClpP mod
Cc1nc(NC(=O)/C=C/c2ccccc2)n[nH]1	1%	32%[15.4 µM]	13%	0.9	6	-7	/
O=C(COC(=O)c1ccc(O)cc1)Nc1ccccc1[N+](=O)[O-]	-4%	13%[15.4 µM]	/	-6.0	12	-41	/

3 compounds out of the list above, ordered by the number in Menin MLL FP FL, smallest number first:
molecule	Menin MLL FP FL
S=C(c1ccc(-c2ccc(Cl)cc2Cl)o1)N1CCCCC1	3.4
CCN1CCCC1CNS(=O)(=O)c1ccc(C(=O)Nc2ccccc2)cc1 (stereo not given)	5.2
CCOc1ccc(C(C)C)cc1S(=O)(=O)N1CCOCC1	5.5

The results go on.
molecule	Sfp inh	gsp ag	gsp antag	Menin MLL FP FL	TRPV1 PAM	D2 potentiator	ClpP mod
Cc1cc(C)c(C#N)c(SCC(=O)N(C)C2CCCCC2)n1	4%	-3%	-17%	0.4	-12	-14	-0.3%
CCOC(=O)CN1C(=O)S/C(=C\c2ccc(-c3cccc(C(=O)O)c3C)o2)C1=O	/	33%	?	/	/	2	/
COc1ccccc1/C=C1\S/C(=N/NC(=O)c2cccc(Br)c2)NC1=O	-6%	-25%	1%	?	7	6	-3.3%
O=C1CC(N2CCN(S(=O)(=O)c3cccc(C(F)(F)F)c3)CC2)C(=O)N1Cc1ccccc1 (stereo not given)	5%	-34%[inhibitor]	3%	-0.4	25	5	-0.8%
COc1ccc(C2CC(=O)Nc3ccccc3S2(=O)=O)cc1OC (stereo not given)	-10%	3%	1%	4.7	-7	4	-4.8%
CCOc1ccc(OCc2cccc(C(=O)N/N=C/c3cccnc3)c2)cc1	12%	5%[15.4 µM]	1%	2.6	1	-1	0.7%
CCc1c(C)nc2ncnn2c1N1CCC(C(=O)NCc2ccc3c(c2)OCO3)CC1	9%	-70%[inhibitor]	-6%	-0.1	4	-10	-3.3%
COc1ccc(NC(=O)c2sc3nc(N4CCOCC4)c4c(c3c2N)CCCC4)c(OC)c1	-13%	-1%	-1%	-7.4	9	-4	-24%
O=C(CN1CCC(n2nnc3cc(F)ccc32)CC1)NCc1ccco1	56µM*	2%	-3%	?	3	-8	0.0%
CCOCCn1c(SCc2ccc(C)cc2)nc2c1c(=O)[nH]c(=O)n2C	15%	-29%	-4%	1.9	/	-6	-1.7%

Assay outcomes (PubChem)
